Screening results as filed in PubChem.
Lassa entry = blocks Lassa virus binding or cell entry. Lassa virus pseudotyped entry inhibition, cell-based qHTS; control for the full effect not named in the record; many of its hits are not listed in these tables. Potency, µM (series often up to 49.2 µM), for inactives: at the top dose activity change, negative = inhibition, actives largely listed as inhibitors. 18,000 compounds, 4.1% hits. AID 720533; active = well fitted inhibition curve with a large enough effect; inconclusive = small, poorly fitted or top-dose-only effect; inactive = no such curve, though single readings can be large or run the other way; tested in HEK293 cells; note: luciferase read-out
Marburg entry = Marburg virus entry inhibition. Marburg virus pseudotype entry/binding inhibition, cell-based; control for the full effect not named in the record; many of its hits are not listed in these tables. Potency, µM (highest dose often 49.2 µM), for inactives: at the highest dose activity change, negative = inhibition, most hits filed as inhibitors. 18,000 compounds, 6.5% hits; active means well fitted inhibition curve with a large enough effect; inconclusive means small, poorly fitted or top-dose-only effect; inactive means no such curve, though single readings can be large or run the other way; tested in HEK293 cells; note: luciferase read-out
Active calls of the source: *; ? = inconclusive; . = not tested or not shown; & = joins results of further samples; ! = not active in a repeat; [ ] = another dose, or the depositor's remark. % is set by controls: 0 for no effect and ±100 for the full control effect; potency is the fitted concentration of half-maximal effect. The list is partial. The share of hits here may be higher or lower than overall.

The opening 18 records (preview)
item	Structure	Lassa entry	Marburg entry
1	O=C(Nc1cccc(C(=O)N2CCCCC2)c1)C1CC1	14%	25%
2	COc1ccccc1C(=O)N[C@@H]1c2ccccc2C2(CCN(Cc3cccnc3)CC2)[C@H]1O	-13%	-23%
3	CC(C)c1cc2c(cc1S(=O)(=O)O)[C@@]1(C)CCC[C@@](C)(C(=O)O)[C@@H]1CC2	-3%	8%
4	C=CCC1CCCC(=O)N2CC[C@H](O)C12 (some centres not stated)	4%[107 µM]	-16%[107 µM]
5	Cc1cnc(-n2ncc(C(=O)N(C)Cc3cccc4ncccc34)c2C(C)C)nc1-c1ccc(F)cc1	-7%	15%
6	CC(Cc1ccc(O)c(O)c1)(NN)C(=O)O (configuration not stated)	-1%	10%
7	Oc1ccc2c3c1O[C@H]1c4c(c5ccccc5n4Cc4ccccc4)C[C@@]4(O)C(C2)N(CC2CC2)CC[C@]314	14µM*	7.9µM*
8	COC(=O)[C@@]1(Cc2ccccc2-c2ccco2)C=C[C@H](C)[C@@H](c2ccccc2)N1C(=O)C(F)(F)F	-7%	?
9	CCCCC/C=C\C/C=C\CCCCCCCCCC(=O)NC(C)C(=O)O (configuration not stated)	12%	-24%
10	COC(=O)[C@@H]1CCCN1C(=O)c1c(OC)cc(=O)n2c1CCN(Cc1ccc3cccnc3c1)CC2	-16%	3%
11	C[C@@H]1C[C@H]2[C@@H](Cc3ccccc3)C(=O)N3[C@@H](C[C@@H](C)[C@@H]3c3ccccc3)[C@@H](Cc3ccccc3)C(=O)N2[C@H]1c1ccccc1	-15%[8.59 µM]	?
12	S=C(S)O[C@@H]1C[C@@H]2C[C@H]1[C@@H]1CCC[C@H]21	3%	12%
13	O=P(O)(O)OC[C@H](O)CO	-6%	-4%
14	CC(/C=C/c1cccc(Oc2ccc(F)cc2)c1)N(O)C(N)=O (configuration not stated)	-27%	6%
15	CCC(=O)Oc1ccc2c(c1)CC[C@@H]1[C@@H]2CC[C@]2(C)[C@@H](OC(=O)CC)CC[C@@H]12	-19%	1%
16	COC(=O)[C@@H]1CCCN1C(=O)c1cnn(-c2nccc(-c3cc(C)sc3C)n2)c1C1CC1	55%[activator]	64%[activator]
17	NC(=O)[C@@H]1CSSCCC(=O)N[C@@H](CCCCN=C(N)N)C(=O)NCC(=O)N[C@@H](CC(=O)O)C(=O)N[C@@H](Cc2c[nH]c3ccccc23)C(=O)N2CCC[C@H]2C(=O)N1	-11%	3%
18	Nc1ccc(C#Cc2cncnc2Nc2ccc(OCc3cccc(F)c3)c(Cl)c2)cc1	.	?

The whole of this part, from the first entry:
item	Structure	Lassa entry	Marburg entry
1	O=C(Nc1cccc(C(=O)N2CCCCC2)c1)C1CC1	14%	25%
2	COc1ccccc1C(=O)N[C@@H]1c2ccccc2C2(CCN(Cc3cccnc3)CC2)[C@H]1O	-13%	-23%
3	CC(C)c1cc2c(cc1S(=O)(=O)O)[C@@]1(C)CCC[C@@](C)(C(=O)O)[C@@H]1CC2	-3%	8%
4	C=CCC1CCCC(=O)N2CC[C@H](O)C12 (some centres not stated)	4%[107 µM]	-16%[107 µM]
5	Cc1cnc(-n2ncc(C(=O)N(C)Cc3cccc4ncccc34)c2C(C)C)nc1-c1ccc(F)cc1	-7%	15%
6	CC(Cc1ccc(O)c(O)c1)(NN)C(=O)O (configuration not stated)	-1%	10%
7	Oc1ccc2c3c1O[C@H]1c4c(c5ccccc5n4Cc4ccccc4)C[C@@]4(O)C(C2)N(CC2CC2)CC[C@]314	14µM*	7.9µM*
8	COC(=O)[C@@]1(Cc2ccccc2-c2ccco2)C=C[C@H](C)[C@@H](c2ccccc2)N1C(=O)C(F)(F)F	-7%	?
9	CCCCC/C=C\C/C=C\CCCCCCCCCC(=O)NC(C)C(=O)O (configuration not stated)	12%	-24%
10	COC(=O)[C@@H]1CCCN1C(=O)c1c(OC)cc(=O)n2c1CCN(Cc1ccc3cccnc3c1)CC2	-16%	3%

Continuation.
item	Structure	Lassa entry	Marburg entry
11	C[C@@H]1C[C@H]2[C@@H](Cc3ccccc3)C(=O)N3[C@@H](C[C@@H](C)[C@@H]3c3ccccc3)[C@@H](Cc3ccccc3)C(=O)N2[C@H]1c1ccccc1	-15%[8.59 µM]	?
12	S=C(S)O[C@@H]1C[C@@H]2C[C@H]1[C@@H]1CCC[C@H]21	3%	12%
13	O=P(O)(O)OC[C@H](O)CO	-6%	-4%
14	CC(/C=C/c1cccc(Oc2ccc(F)cc2)c1)N(O)C(N)=O (configuration not stated)	-27%	6%
15	CCC(=O)Oc1ccc2c(c1)CC[C@@H]1[C@@H]2CC[C@]2(C)[C@@H](OC(=O)CC)CC[C@@H]12	-19%	1%
16	COC(=O)[C@@H]1CCCN1C(=O)c1cnn(-c2nccc(-c3cc(C)sc3C)n2)c1C1CC1	55%[activator]	64%[activator]
17	NC(=O)[C@@H]1CSSCCC(=O)N[C@@H](CCCCN=C(N)N)C(=O)NCC(=O)N[C@@H](CC(=O)O)C(=O)N[C@@H](Cc2c[nH]c3ccccc23)C(=O)N2CCC[C@H]2C(=O)N1	-11%	3%
18	Nc1ccc(C#Cc2cncnc2Nc2ccc(OCc3cccc(F)c3)c(Cl)c2)cc1	.	?
19	C=C[C@H]1CN2CC[C@H]1C[C@@H]2[C@@H](O)c1ccnc2ccccc12	-9%	-13%
20	CC(=O)NCCNc1nc(-c2ccc(N(C)C)cc2)nc2ccccc12	23%	?

Next part
item	Structure	Lassa entry	Marburg entry
21	O=C1C(c2[nH]c3ccccc3c2O)=Nc2ccccc21	-7%	2%
22	CC(C)[C@@H](CC(=O)N[C@@H]1CCCC[C@H]1C(=O)N[C@H](CC(=O)N[C@@H](CCC(=O)O)CC(=O)O)Cc1ccccc1)NC(=O)C[C@H](Cc1c[nH]c2ccccc12)NC(=O)[C@@H]1CCCC[C@H]1N	-1%	-7%
23	COc1cccc(-c2cc(=O)c3cc(NC(=O)c4ccc(Cl)cc4)ccc3[nH]2)c1	1%	?
24	CC(=O)OC1CC(OC(C)=O)[C@]2(C)C(CC(O)[C@]3(C)C2CC[C@@]2(C)C(c4ccoc4)OC(=O)C4O[C@]432)C1(C)C (some centres not stated)	-17%	-36%
25	CC(C)(c1ccc(OCC2CO2)cc1)c1ccc(OCC2CO2)cc1 (configuration not stated)	8.9µM*!	7.1µM*!
26	COC(=O)C1=C[C@@H]([C@@H](C)[C@H](OC)c2ccccc2Br)[C@@H]2OCCC[C@H]12	-8%[8.59 µM]	?
27	CCOC(=O)CN1C(=O)[C@]2(OCCC=C[C@@H]2C)c2cc(OC)ccc21	-2%[8.59 µM]	13%[8.59 µM]
28	C[C@]12C=CC(=O)N[C@@H]1CC[C@@H]1[C@@H]2CC[C@]2(C)[C@@H](C(=O)Nc3cc(C(F)(F)F)ccc3C(F)(F)F)CC[C@@H]12	?	8%
29	CS(=O)(=O)Nc1cccc(-c2nccc(NCc3ccccc3)n2)c1	-2%	2%
30	COc1cc(CCN)ccc1O	-1%	2%

New compounds follow
item	Structure	Lassa entry	Marburg entry
31	COc1ccc(C2NC(=S)N3C(c4ccc(OC)c(OC)c4)NC(=S)N23)cc1OC (configuration not stated)	?	-31%
32	COc1ccc(O[C@H]2C=C[C@@H](c3ccccc3)O[C@H]2CON=C(C)CCN2CCCc3nc(C)c(C)cc32)cc1	2%[8.59 µM]	?
33	COc1ccc(C(=O)NCc2cccnc2)cc1C(=O)NCc1cccnc1	-4%[17.8 µM]	-3%[17.8 µM]
34	COc1ccccc1C1CC(=O)Oc2c(C(C)C)ccc(C)c21 (configuration not stated)	-20%	-8%
35	COc1ccc(-c2ccnc(-n3ncc(C(=O)NC(C)(C)CO)c3C3CC3)n2)cc1F	-2%	2%
36	Cc1ncc(Cc2ccccc2)c(C2CCN(S(=O)(=O)C[C@]34CC[C@H](CC3=O)C4(C)C)CC2)n1	?	?
37	Cc1nn(C)c(Cl)c1CN1CCOc2ccc(CN3CCC(Oc4cccnc4)CC3)cc2C1	-4%	?
38	CCn1c(-c2nonc2N)nc2c(C#CC(C)(C)O)ncc(OCC3CCCN3)c21 (configuration not stated)	.	1.3µM*
39	CC12C=C(C=Cc3ccc(Br)cc3)C(C)(C1)[C@H](c1ccc(Br)cc1)CC2=O (some centres not stated)	.	-26%[8.59 µM]
40	CCCCCN(CCCCC)C(=O)[C@H](CCC(=O)O)NC(=O)[C@H](Cc1ccc(OP(=O)(O)O)cc1)NC(C)=O	-1%	-9%

Next results.
item	Structure	Lassa entry	Marburg entry
41	CCC1CN(CCNC(=O)c2cccnc2C)Cc2cc(OC)ccc2O1 (configuration not stated)	-1%	-9%
42	C=CC1=C2C=C(C3CC3)N(CCCOC(C)C)C=C2C(=O)C(C)(OC(=O)c2ccco2)C1=O (configuration not stated)	14%[8.59 µM]	-14%[8.59 µM]
43	Cc1cc(C(=O)Nc2cccc(-c3nc(CNC(=O)c4cnccn4)c(C)o3)c2)c(C)o1	-23%	-36%
44	CC(=O)O[C@H]1C[C@H](O[C@H]2[C@@H](O)C[C@H](O[C@H]3[C@@H](O)C[C@H](OC4CC[C@@]5(C)C(CC[C@@H]6[C@@H]5CC[C@]5(C)[C@@H](C7=CC(=O)OC7)[C@@H](O)C[C@]65O)C4)O[C@@H]3C)O[C@@H]2C)O[C@H](C)[C@H]1O[C@@H]1O[C@H](CO)[C@@H](O)[C@H](O)[C@H]1O (some centres not stated)	2.8µM*	?
45	O=C1CS[C@@H](c2ccccc2Cl)c2cc(Cl)ccc2N1	-15%	-11%
46	CN(C)c1ccc2c(-c3ccccc3)c3ccc(=[N+](C)C)cc-3oc2c1	3.2µM*	2.5µM*
47	O=c1c2nc(Br)n([C@@H]3O[C@@H]4CO[P@@](O)(=S)O[C@H]4[C@H]3O)c2nc2[nH]c(-c3ccccc3)cn12	-5%	3%
48	CC(=O)Nc1ccc(NC(=S)NC(=O)c2ccc(C(C)(C)C)cc2)cc1	32µM*	7.1µM*
49	CCCCC1=CC2=C(c3ccco3)C(=O)C(C)(OC(=O)c3ccc(OC)cc3)C(=O)C2=CN1CCc1ccccn1 (configuration not stated)	3%[8.59 µM]	-20%[8.59 µM]
50	CCOC(=O)C1(C)Oc2ccccc2C(c2ccc(OC)cc2)=C1C(=O)OC (configuration not stated)	-30%	-13%

(more compounds)
item	Structure	Lassa entry	Marburg entry
51	O=C(C[C@H]1C(=O)N(CCc2ccccc2)C[C@@H]1Cc1ccccc1)Nc1ccc(Br)cc1	-15%	?
52	Cc1ccccc1Nc1oc(-c2ccccc2)nc1C=Cc1ccccc1	10%[8.59 µM]	-21%[8.59 µM]
53	COCC(=O)Nc1c(I)c(C(=O)NCC(O)CO)c(I)c(C(=O)N(C)CC(O)CO)c1I (configuration not stated)	2%[17.8 µM]	10%[17.8 µM]
54	C/C(=C\COc1c2ccoc2cc2oc(=O)ccc12)CCC(O)C(C)(C)O (configuration not stated)	-2%	8%
55	CC(C)NC(C)C	-7%	8%
56	CCCCCCN1CCN(C2CN(Cc3ccc([N+](=O)[O-])cc3)S(=O)(=O)C2)CC1 (configuration not stated)	15%	?
57	CC(=O)OCC(=O)[C@@]1(OC(C)=O)[C@@H](C)C[C@H]2[C@@H]3C[C@H](F)C4=CC(=O)C=C[C@]4(C)[C@@]3(F)[C@@H](O)C[C@@]21C	-3%	?
58	O=C(c1ccco1)N1CCN(C2CN(Cc3ccc([N+](=O)[O-])cc3)S(=O)(=O)C2)CC1 (configuration not stated)	10%	10%
59	CC1(C)CCC[C@]2(C)C3CC(=O)O[C@@]3(C)CC[C@H]12 (some centres not stated)	-5%	11%
60	O=C(NCCN1Cc2ccccc2OC(c2ccsc2)C1)c1cncs1 (configuration not stated)	-15%	-9%

Next section
item	Structure	Lassa entry	Marburg entry
61	CC1(C)[C@H](C(=O)O[C@H](C#N)c2cccc(Oc3ccccc3)c2)[C@@H]1C=C(Br)Br	?	?
62	CC(C)c1c(C(=O)N(C)Cc2cccc3ncccc23)cnn1-c1nccc(-c2ccco2)n1	-5%	1%
63	CN1C2CCC1CC(NC(=O)c1nn(C)c3ccccc13)C2 (configuration not stated)	?	?
64	Cc1noc(C)c1S(=O)(=O)N1CCc2nc(COc3ccccc3)c3c(c2C1)CO[C@@H](C)C3	-10%[8.59 µM]	18%[8.59 µM]
65	CCCCC/C=C\C=C\[C@H](O)CCCCCCCC(=O)O	6%	15%
66	COCCOC(=O)C1=C(C)NC(C)=C(C(=O)OC(C)C)[C@H]1c1cccc([N+](=O)[O-])c1	-6%[17.8 µM]	-2%[17.8 µM]
67	O=c1cc(-c2ccccc2Cl)oc2c(NS(=O)(=O)c3ccccc3C(F)(F)F)ccc(O)c12	-11%	-16%
68	CCn1cc(-c2ccnc3[nH]ccc23)c(-c2cccc(NC(=O)Nc3ccc(OCc4ccccc4)cc3)c2)n1	.	?
69	Cc1cc(O)cc(C)c1Cl	1%&-13%	9%&-16%
70	COc1cccc2c1[C@H](C=Cc1ccccc1)[C@@H]([C@H](O)CO)OC2	?	-11%[8.59 µM]
71	Cc1nc2sccn2c1CN1CCC2(CC1)CC2C(=O)Nc1ccc2c(c1)OCO2 (configuration not stated)	-5%	16%
72	Cc1ccc2c(c1)cc(CN(C)Cc1nc(C)cs1)c(=O)n2C	-11%	-3%
73	COC(=O)N[C@@H](CCc1ccccc1)[C@]1(C(=O)OC)CCCC1=O	-4%	-10%
